Screening results deposited in PubChem BioAssay by ICCB-Longwood Screening Facility, Harvard Medical School.
Sa growth 42C = S. aureus growth inhibition at 42 and 30 °C, primary screen, LtaS inhibitor project, RN4220, two temperatures | OD600, 20 h, 42 °C; hits give low values | relative growth, % (concentration not given with the values) | actives 0.53% (n = 170,000);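 active means growth at 42 °C up to 50% and 20 or more points under that at 30 °C, or under 10% at both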;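 further: 300 nL library stock went into each well; scaled to the means of positive and negative controls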
HCMV NEC inh = inhibitors of HCMV UL50-UL53 interaction, biochemical, HTRF. normalized percent inhibition. HCMV UL50-UL53 nuclear egress complex (human cytomegalovirus). AID 1918969, 2023. inhibition, % (no concentration beside the values). actives 0.15% (n = 190,000);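 active means both replicates at 50% or more, plus weaker picks with an unusually low signal ratio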;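 further: stock transfer was 100 nL into about 20 µL; 0% = negative control wells and 100% = wells with untagged competitor protein; inactives centre near -12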
GIV Gai3 FP = inhibitors of GIV peptide binding to Galpha-i3, primary screen, biochemical, fluorescence polarization, FITC-GIV GBA peptide, rat Galphai3 | percent of control (FP), % (no concentration beside the values) | 90 min; hits give low values; scaled: aluminum fluoride 0%, vehicle 100% | Guanine nucleotide-binding protein G(i) subunit alpha-3 (Rattus norvegicus), P08753 | actives 0.42% (n = 210,000) | AID 1224905, 2016;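 active means replicate mean at 85% of control or lower, very high polarization wells dropped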;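 further: wells of about 15 µL received 100 nL stock; the first replicate is given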
Target sequence (P08753 whole entry, looked up): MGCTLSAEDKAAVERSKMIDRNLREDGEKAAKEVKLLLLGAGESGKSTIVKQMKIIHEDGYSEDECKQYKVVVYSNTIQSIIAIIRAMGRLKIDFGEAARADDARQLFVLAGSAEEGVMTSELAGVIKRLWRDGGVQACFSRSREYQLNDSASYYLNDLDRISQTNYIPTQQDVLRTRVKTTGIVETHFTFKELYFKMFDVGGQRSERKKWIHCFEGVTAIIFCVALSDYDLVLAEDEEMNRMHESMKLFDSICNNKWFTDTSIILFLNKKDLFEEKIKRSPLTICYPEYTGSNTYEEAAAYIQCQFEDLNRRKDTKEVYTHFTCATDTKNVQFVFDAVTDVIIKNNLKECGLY
Sa growth 42C second temp = second read-out of Sa growth 42C, no call of its own (marks repeat the call); relative growth, %; measured here: growth at 30 °C;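 optical density after 20 h as mean of two plates; 100% = untreated growth and lower means inhibition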
Numbers without * were called inactive; x = not tested or not shown; & = joins results of further samples. An unsorted share of the library, and some 0.82% of all compounds hit somewhere here.

Key to letters: A = Sa growth 42C; B = Sa growth 42C second temp; C = HCMV NEC inh; D = GIV Gai3 FP
CCCN(CCC)C(=O)Cn1c(C2CCCN2C(=O)CC)nc2ccccc21 (centres undefined)
  A = x; B = x; C = -20; D = 102

CN(C)c1ccc(C(CNC(=O)c2ccccc2Cl)N2CCc3ccccc3C2)cc1 (centres undefined)
  A = x; B = x; C = -35; D = 99

FC(F)(F)c1ccc(-c2nnc3ccc(NC4CC4)nn23)cc1
  A = 113; B = 94; C = -2; D = 102

COc1ccc(C2CCCN2C(=O)Nc2cc(OC)ccc2OC)cc1 (centres undefined)
  A = x; B = x; C = -18; D = 100

CCOC(=O)C(Cc1ccc(NC(=O)c2ccccc2)cc1)N1C(=O)c2ccccc2C1=O (centres undefined)
  A = 100; B = 96; C = -9; D = x

Cc1ccc(-n2c(O)c(C=NCCc3ccco3)c3ccccc3c2=O)cc1
  A = 104; B = 69; C = -38; D = x

Fc1ccc(/C=C2\CCCC3=C2Nc2ncnn2C3c2ccc(F)cc2)cc1 (centres undefined)
  A = x; B = x; C = -63; D = 103

COc1ccc(C23CC4CC(CC(C(=O)O)(C4)C2)C3)c(F)c1
  A = 195; B = 107; C = 20; D = x

N#Cc1cccc(C#N)c1Oc1ccc(N)cc1
  A = 97; B = 98; C = -6; D = 107

Cn1c(SCC(=O)NC2CC2)nnc1C(F)(F)F
  A = 84; B = 97; C = -6; D = x

CCCNC(=O)c1ccc(CS(=O)c2ccc(Cl)cc2)o1 (centres undefined)
  A = 104; B = 95; C = -28; D = 106

N#Cc1cc[n+](CC(=O)c2ccc(NC(=O)c3ccccc3)cc2)cc1
  A = 83; B = 76; C = x; D = 103

Cc1ccc(S(=O)(=O)NCC(c2ccc(N(C)C)cc2)N2CCc3ccccc32)cc1C (centres undefined)
  A = 111; B = 104; C = x; D = 102

COc1cc2c3nc4n(c(=O)c3n(CC(=O)N3CCCC3)c2cc1OC)CCS4
  A = 86; B = 85; C = -26; D = 105

CC(C)[C@H](NC(=O)c1ccco1)C(=O)N(C)Cc1ccc(C(F)(F)F)cc1
  A = 96; B = 91; C = -24; D = x

O=C(CC1c2ccccc2CCN1S(=O)(=O)c1ccc(Cl)cc1)NCc1cccnc1 (centres undefined)
  A = x; B = x; C = -20; D = 104

CCOc1ccc(CCNC(=O)c2cc(=O)[nH]c3ccc(S(=O)(=O)N4CCCCC4C)cc23)cc1OCC (centres undefined)
  A = 112; B = 97; C = x; D = 106

Cc1cc(-c2cc(S(=O)(=O)NC3CCCC3)c(C)s2)on1
  A = x; B = x; C = -18; D = 108

O=C(c1ccc(Br)o1)N(c1ccc(Br)cc1)C1C=CS(=O)(=O)C1 (centres undefined)
  A = 98; B = 89; C = -19; D = 100

Cc1cccc(NC(=O)CCn2ccc(C)n2)n1
  A = 106; B = 85; C = -27; D = 101

O=C1C(Cc2ccc(-c3nn[nH]n3)cc2)=C(c2ccccc2)S(=O)(=O)c2ccccc21
  A = 43; B = 26; C = -21; D = 86

O=C(CSc1nnc(SCC(=O)c2ccc[nH]2)s1)c1ccc[nH]1
  A = 79; B = 89; C = -38; D = x

COC(=O)c1ccc(NC(=O)CSc2ncnc3sc4c(c23)CCC4)cc1
  A = x; B = x; C = 8; D = 105

COc1ccc(Cl)cc1NC(=O)CSc1nnc2[nH]c(=O)cc(C)n12
  A = 101; B = 92; C = x; D = 97

O=C(c1c(-c2ccc(Cl)cc2)nc2n1CCS2(=O)=O)N1CCOCC1
  A = x; B = x; C = -27; D = 103

CCc1ccccc1N(C)C(=O)Cn1cnc2sc(C)c(S(=O)(=O)N3CCN(c4ncccn4)CC3)c2c1=O
  A = 95; B = 92; C = -22; D = 106

CCCn1c(=O)c2cc(Cl)ccc2n2c(=O)n(CC(=O)Nc3cc(F)ccc3F)nc12
  A = x; B = x; C = -4; D = 99

O=C(NC1CC1)c1ccc(Cl)cc1Cl
  A = 103; B = 81; C = -18; D = x

O=C(CNC(=O)C1CCCCC1)Nc1nc2ccccc2s1
  A = 100; B = 86; C = -29; D = x

O=C(COCc1cc(-c2ccco2)on1)Nc1ccc(OC(F)(F)F)cc1
  A = 81; B = 96; C = x; D = 93

O=C(NC1CCCCC1)C1CC(c2c(F)cccc2Cl)=NO1 (centres undefined)
  A = 94; B = 86; C = -23; D = 99

CCOc1ccc2nc(N3CCC(C(=O)NCc4cccnc4)CC3)sc2c1
  A = 102; B = 87; C = 4&-15; D = 104&100

Cc1c(/C=N/NC(N)=S)c2ccccc2n1C
  A = 99; B = 95; C = -4; D = 105

O=C(O)CN1C(=O)C2CC=CCC2C1=O (centres undefined)
  A = 96; B = 88; C = -10; D = 101

Cc1sc(C)c(S(=O)(=O)N2CCCc3ccccc32)c1-c1ccno1
  A = x; B = x; C = -24; D = 98

CCN(CC)C1CCCCC1NS(=O)(=O)c1ccc(Cl)cc1 (centres undefined)
  A = 106; B = 85; C = -6; D = 101

COc1ccc(Cl)cc1NC(=O)C1CCN(S(=O)(=O)c2ccc3c(c2)CCCN3C(=O)C2CCC2)CC1
  A = 116; B = 83; C = x; D = 100

CCOc1ccc(S(=O)(=O)Nc2cc(Cl)ccc2OC)c2cccnc12
  A = 92; B = 78; C = 6; D = 101

O=C(c1ccco1)N1CCN(c2nc3ccccc3c(=O)n2-c2ccccc2)CC1
  A = 108; B = 82; C = -1; D = 98

CCc1ccc(NC(=O)N2CC(C)Sc3ccccc32)cc1 (centres undefined)
  A = 93; B = 91; C = x; D = 104

O=S(=O)(Cc1ccccc1)c1nc2ccccc2n1Cc1ccc(Br)cc1
  A = 104; B = 102; C = x; D = 97

CC(=O)Nc1cccc(OCC(=O)N2CCCCC2)c1
  A = 86; B = 83; C = -35; D = x

COC(=O)/C=C1\SC(=NC(=O)c2ccc(F)cc2)NC1=O
  A = 113; B = 79; C = x; D = 98

CCOC(=O)c1c(N)n[nH]c1C
  A = 96; B = 94; C = -6; D = x

Brc1ccc(-c2cnc3ccccc3n2)s1
  A = 98; B = 84; C = -21; D = 105

CC[C@@]1(O)C(=O)OCc2c1cc1n(c2=O)Cc2cc3c(CN(C)C)c(O)ccc3nc2-1
  A = 94&97&94; B = 91&87&84; C = -69&-105&-93&-107&-148; D = -6.9*

O=C(O)CSc1cn(Cc2ccccc2)c2ccccc12
  A = 109; B = 89; C = -23; D = 100

O=C(CCc1cn(Cc2ccc(F)cc2)c2ccccc12)NC1CCCCC1
  A = 100; B = 92; C = x; D = 108

Cc1ccc(Oc2ncc(C(F)(F)F)cc2Cl)c2c1CCC2
  A = 92; B = 106; C = 12; D = 100

COc1ccccc1CCN1COc2c(cc3c(C)c(C)c(=O)oc3c2C)C1
  A = 96; B = 85; C = -1; D = 103

CCOc1nc2cccnc2n(CC(=O)Nc2cccc(C)c2C)c1=O
  A = x; B = x; C = -17; D = 103

Cc1cc(Nc2cccc3c2OCO3)c2ccccc2n1
  A = 76; B = 79; C = -15; D = 100

FC(F)(F)c1ccccc1CNCC1NCCc2ccccc21 (centres undefined)
  A = 84; B = 28; C = 14; D = x

Cc1[nH]c2ccc(S(N)(=O)=O)cc2c1C
  A = 107; B = 78; C = -18; D = 113

O=c1[nH]c2ccc(S(=O)(=O)Nc3cc(Cl)ccc3O)cc2o1
  A = 72; B = 85; C = -23; D = 120

Cc1noc2nc(C(=O)O)nc(N3CCCCC3)c12
  A = 90; B = 87; C = -16; D = 101

O=c1oc2ccccc2cc1-c1nc2c(s1)CCCC2
  A = 121; B = 67; C = -23; D = 117

CC(C)c1ccccc1Oc1c(C(F)(F)F)oc2c(CN3CCN(C)CC3)c(O)ccc2c1=O
  A = 111; B = 86; C = -14; D = 97

CCC(C)(C)NC(=O)/C=C/c1cccs1
  A = 109; B = 84; C = -35; D = x

COc1cc2cc(CNc3ccccc3)c(=O)n(CC(=O)Nc3ccccc3)c2cc1OC
  A = 91; B = 79; C = x; D = 108

Overlap with the part before: 2 compounds, then new ones.
Key to letters: A = Sa growth 42C; B = Sa growth 42C second temp; C = HCMV NEC inh; D = GIV Gai3 FP
CCC(C)(C)NC(=O)/C=C/c1cccs1
  A = 109; B = 84; C = -35; D = x

COc1cc2cc(CNc3ccccc3)c(=O)n(CC(=O)Nc3ccccc3)c2cc1OC
  A = 91; B = 79; C = x; D = 108

COc1ccc(C(=O)NCCc2nnc3ccc(SCC(=O)Nc4cc(C)on4)nn23)cc1
  A = 83; B = 77; C = -27; D = 100

CCOC(=O)C1CCN(c2c(NCCN3CCOCC3)c(=O)c2=O)CC1
  A = x; B = x; C = -38; D = 94

COc1ccc(C(=O)Nc2cccc3ccc(C)nc23)cc1
  A = x; B = x; C = 13; D = 100

CC(C)c1nn2c(=O)cc(COC(=O)CNC(=O)c3ccccc3)nc2s1
  A = 93; B = 104; C = x; D = 108

C/C(=C\C(=O)Nc1ccccc1)N1CCOCC1
  A = 81; B = 87; C = x; D = 97

COc1ccc2oc(=Nc3ccc(C(F)(F)F)cc3)c(C(=O)NC(C)=O)cc2c1
  A = x; B = x; C = -17; D = 100

CSCC(O)Cn1[nH]c(=O)ccc1=O (centres undefined)
  A = 84; B = 87; C = -11; D = 96

COC(=O)c1c(SC)nc2ccccc2c1OCc1ccc(C)cc1C
  A = 86; B = 74; C = x; D = 100

O=C(C1CC(=O)N(c2ccc(F)c(Cl)c2)C1)N1CCCCC1 (centres undefined)
  A = 103; B = 94; C = x; D = 105

Cc1ccc(C2CC(C(F)(F)F)n3nc(C(=O)Nc4c(C)n(C)n(-c5ccccc5)c4=O)c(Cl)c3N2)cc1 (centres undefined)
  A = x; B = x; C = -2; D = 99

CCOC(=O)c1ccc(NC(=O)c2sc(NC(=O)c3cccc(Cl)c3)c(C(=O)OCC)c2C)cc1
  A = x; B = x; C = -20; D = 103

O=C(CCC(=O)NC1CCN(Cc2ccccc2)CC1)NCc1ccco1
  A = 109; B = 82; C = -35; D = 94

CCOC(=O)N1CCN(/[N+]([O-])=N/Oc2ccc([N+](=O)[O-])cc2[N+](=O)[O-])CC1
  A = x; B = x; C = -350; D = 94

CCCC(C(=O)NC1CCCCC1)N1Cc2ccccc2C1=O (centres undefined)
  A = 92; B = 101; C = 8; D = 107

CCOC(=O)c1nc2ccccc2oc1=O
  A = 54; B = 25; C = -21; D = 99

NNC(=O)c1ccc(CN2C(=O)c3cccc4cccc2c34)cc1
  A = 101; B = 83; C = -46; D = x

COc1ccccc1-n1cc2c(c1-c1ccc(Cl)cc1)c(=O)n(C)c(=O)n2C
  A = x; B = x; C = -39; D = 111

CCOc1ccc(-c2nc3c(c(C)nn3-c3ccccc3)c3cc(OC)c(OC)cc23)cc1
  A = 89; B = 87; C = x; D = 105

COc1ccc2[nH]c3c(=O)n(CC(=O)NCc4ccco4)c(=S)[nH]c3c2c1
  A = 107; B = 73; C = -14; D = 104

O=C(Cn1c(=O)nc(-c2ccccc2)c2ccccc21)Nc1ccc(Oc2ccccc2)cc1
  A = x; B = x; C = -31; D = 104

CCOC(=O)/C(=N/O)C1=NC(C)(C)Cc2cc(OC)c(OC)cc21
  A = 91; B = 95; C = -2; D = 103

CCCn1c(=O)c2sccc2n2c(CCC(=O)NC)nnc12
  A = x; B = x; C = -20; D = 101

O=C1c2cccnc2C(=O)N1Cc1ccc(S(=O)(=O)NC2CCCCC2)cc1
  A = 88; B = 94; C = -26; D = 106

CCc1ccc(Nc2ccc(C(=O)N3CCc4ccccc43)nn2)cc1
  A = x; B = x; C = -4; D = 99

CCOC(=O)N1CCc2c(sc3c2c(=O)n(-c2ccc(F)cc2)c(=O)n3CC(=O)c2ccc(Cl)cc2)C1
  A = 96; B = 85; C = -10; D = 122

CCc1c(C)n([O-])c2c([n+]1=O)CCCCC2
  A = 72; B = 92; C = x; D = 109

O=C(COc1ccccc1)N1N=C(c2ccc(Br)cc2)CC1(O)C(F)(F)F (centres undefined)
  A = x; B = x; C = -14; D = 101

CC1CC(C)CN(Cc2nc(N)nc(Nc3ccccc3)n2)C1 (centres undefined)
  A = 88; B = 92; C = 0; D = 101

Cc1ccc(NC(=O)CN2C(=O)CCSc3ccccc32)c(C)c1
  A = 109; B = 89; C = -33&-23; D = 104&100

CCOC(=O)c1cnc(N2CCN(c3ccc(OC)cc3)CC2)c2ccccc12
  A = 80; B = 90; C = x; D = 98

Single values from the results shown.
HCMV NEC inh with O=C1c2cccnc2C(=O)N1Cc1ccc(S(=O)(=O)NC2CCCCC2)cc1 = -26
HCMV NEC inh with O=C(COc1ccccc1)N1N=C(c2ccc(Br)cc2)CC1(O)C(F)(F)F (centres undefined) = -14

Other results follow:
Key to letters: A = Sa growth 42C; B = Sa growth 42C second temp; C = HCMV NEC inh; D = GIV Gai3 FP
Cn1c(=O)c2c(nc(N3CCCCC3)n2CCCc2ccccc2)n(C)c1=O
  A = 88; B = 85; C = -12; D = 102

CNC(=O)C1CCC(Cn2c(=O)c3sccc3n(CC(=O)NCc3cccc(OC)c3)c2=O)CC1 (centres undefined)
  A = 78; B = 78; C = x; D = 98

COc1ccc(CNC(=O)Cn2c(=O)nc(-c3ccccc3)c3cc(Cl)ccc32)cc1OC
  A = 94; B = 79; C = x; D = 103

CC1CCCCC1N(C)C1CCN(CCCNC(=O)/C=C/c2ccccc2Cl)CC1 (centres undefined)
  A = 110; B = 100; C = x; D = 99
